Screening data from PubChem.
StopGo reporter – lowers the luciferase signal of an FMDV 2A StopGo reporter; 410,000 tested, 1.2% active; AID 1159524; Potency, µM (top dose mostly 57.9 µM), for inactives: at the highest dose signal change, negative = less light; human cells with a luciferase reporter of 2A StopGo recoding; control for the full effect not named in the record; active = well fitted falling curve with a large enough effect; inconclusive = small, poorly fitted or top-dose-only effect; inactive = no such curve, though single readings can be large or run the other way; tested in HEK293T cells; also: % is scaled to controls: 0 for no effect and ±100 for the full control effect; nearly all actives have a fitted effect of over 45% in size; luciferase light after 4 h
RE007 growth inh – less growth of the S. pombe RE007 Vpr strain; S. pombe RE007 Vpr strain, BacTiter-Glo ATP luminescence, 24 h; control for the full effect not named in the record; Potency, µM (series often up to 92.2 µM), for the others: top-dose activity change, negative = less growth; 360,000 tested, 0.21% active; AID 651644; active = well fitted falling curve with a large enough effect; inconclusive = small, poorly fitted or top-dose-only effect; inactive = no such curve, though single readings can be large or run the other way;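 also: % is scaled to controls: 0 for no effect and ±100 for the full control effect; nearly all actives have a fitted effect of over 50% in size; the assay follows cell death caused by Vpr and the record does not say whether a fall means rescue or toxicity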
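Fission yeast strain RE007, carrying one chromosomally integrated HIV-1 vpr copy, was seeded at OD 0.01 in PMG+AL medium with 23 nL pinned compound. After 24 h at 30 °C and 99% humidity, viability was read by BacTiter-Glo luminescence.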
NS1 inh – inhibitors of influenza NS1 protein function; S. cerevisiae slowed by influenza A NS1, growth recovery by OD600; Potency, µM (top dose mostly 46.1 µM), inactives show at the highest dose activity, positive = more growth; 270,000 tested, 0.4% active; AID 2326; also: actives are rising curves; nearly all actives have a fitted effect of over 50% in size
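A cell-based growth assay was used: compounds that relieve NS1-induced slow growth of budding yeast raise OD600. Assay medium was yeast nitrogen base with ammonium sulphate and -URA supplement, pH 6.0, with 2% galactose.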
Marburg entry inh – Marburg virus entry inhibition. 300,000 tested, 1.8% active. Potency, µM (doses to about 37.8 µM), for inactives: at the highest dose activity change, negative = inhibition, hits mostly inhibitors. Marburg virus pseudotyped entry inhibition, cell reporter; control for the full effect not named in the record; about a third of the inactives were read at about 46 µM. AID 540276; active = well fitted inhibition curve with a large enough effect; inconclusive = small, poorly fitted or top-dose-only effect, or effect the other way; inactive = flat fitted curve, though single readings scatter; tested in HEK293 cells; about a fifth of its hits are not listed in these tables; also: % is scaled to controls: 0 for no effect and ±100 for the full control effect; luciferase read-out
Cruzain inh noDet – inhibitors of Trypanosoma cruzi cruzain without detergent; P25779; purified cruzain, Z-FR-AMC fluorescence, no detergent; Potency, µM, for inactives: max response, negative = inhibition, most hits filed as inhibitors; 200,000 tested, 2.3% active; AID 1476; active = well fitted curve in the direction sought with a large enough effect; inconclusive = small, poorly fitted or top-dose-only effect, or another doubt; inactive = no such curve, though single readings can be large; an effect the other way counts as inactive or inconclusive;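 also: plate controls were enzyme without inhibitor for no effect and buffer without enzyme for full effect; nearly all actives have a fitted effect of over 40% in size; top concentration of the series not given in the record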
Target sequence (P25779 123-467 limits assumed): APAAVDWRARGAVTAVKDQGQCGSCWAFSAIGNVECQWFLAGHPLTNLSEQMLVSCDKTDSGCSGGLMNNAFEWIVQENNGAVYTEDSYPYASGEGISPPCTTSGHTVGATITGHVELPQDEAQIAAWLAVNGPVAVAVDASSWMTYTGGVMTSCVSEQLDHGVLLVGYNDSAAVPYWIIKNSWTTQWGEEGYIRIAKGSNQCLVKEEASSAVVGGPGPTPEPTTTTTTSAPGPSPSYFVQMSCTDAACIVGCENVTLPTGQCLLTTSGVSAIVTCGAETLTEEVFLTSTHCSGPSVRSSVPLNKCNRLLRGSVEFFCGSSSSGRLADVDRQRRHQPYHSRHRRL
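Detergent-free condition (0.00005% Triton X-100) in acetate buffer pH 5.5 with DTT. 1.5 nM enzyme and compound were pre-mixed 15 min, then 2 uM Z-FR-AMC substrate added; reaction progress from fluorescence change between first and third reads (60 s).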
SARS PLP yeast – SARS-CoV PLP inhibition in yeast; S. cerevisiae expressing SARS-CoV PLpro, growth rescue; control for the full effect not named in the record; Potency, µM (top dose mostly 32.9 µM), for inactives: at the highest dose activity, positive = growth rescue; 330,000 tested, 0.19% active; also: 0% is about no effect; nearly all actives have a fitted effect of over 55% in size; growth read by luminescence after 48 h
Lassa entry inh – inhibitors of Lassa virus binding or cell entry; Lassa virus pseudotype entry inhibition, cell reporter; control for the full effect not named in the record; Potency, µM (top dose mostly 37.9 µM), for the others: at the highest dose activity change, negative = inhibition, actives largely listed as inhibitors; 300,000 tested, 1.2% active; AID 540256; active means well fitted inhibition curve with a large enough effect; inconclusive means small, poorly fitted or top-dose-only effect, or effect the other way; inactive means flat fitted curve, though single readings scatter; tested in HEK293 cells; also: % is scaled to controls: 0 for no effect and ±100 for the full control effect; nearly all actives have a fitted effect of over 50% in size; luciferase read-out
Cruzain Triton – inhibitors of Trypanosoma cruzi cruzain with detergent; Potency, µM, for inactives: max response, negative = inhibition, most hits filed as inhibitors; P25779; 200,000 tested, 0.43% active; purified cruzain, Z-FR-AMC fluorescence, 0.01% Triton; AID 1478; active = well fitted curve in the direction sought with a large enough effect; inconclusive = small, poorly fitted or top-dose-only effect, or another doubt; inactive = no such curve, though single readings can be large; an effect the other way counts as inactive or inconclusive;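 also: plate controls were neutral wells for no effect and buffer without enzyme for full effect; nearly all actives have a fitted effect of over 40% in size; top concentration of the series not given in the record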
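Compounds were screened in titration against cruzain (1.5 nM) with 0.01% Triton X-100 to counter colloidal aggregation. Activity was the AMC fluorescence increase over 60 s after adding 2 uM Z-FR-AMC at pH 5.5.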
* = called active by the depositor; u = inconclusive; x = not tested or not shown; [ ] = dose if it differs, or a comment. Unless noted, calls follow the shape of the dose curve; as a rule, active means well fitted rising curve with a large enough effect; inconclusive means small, poorly fitted or top-dose-only effect; inactive means no such curve, though single readings can be large or run the other way. Potency is read from the fitted curve at half-maximal effect. This is a random part of the collection (roughly 4.7% active in at least one column).

molecule | StopGo reporter | RE007 growth inh | NS1 inh | Marburg entry inh | Cruzain inh noDet | SARS PLP yeast | Lassa entry inh | Cruzain Triton
CCN(c1ccc(F)cc1)S(=O)(=O)c1ccc2[nH]cc(C(=O)NCCCN3CCOCC3)c(=O)c2c1 | -0.5% | 15.8% | x | u | x | 0.6% | 24.7%[46.1 µM] | x
CC[n+]1c(C)sc2cc(C)ccc21 | -23.0% | -4.0% | 2.2% | x | x | 0.4% | x | x
C[C@]12CC[C@@H](O)CC1=CCC1C2CC[C@]2(C)C(=O)[C@H](F)CC12 (some centres not stated) | 0.0% | 2.0% | x | -7.3% | x | -3.7% | 6.8% | x
O=C1Nc2c(c(=O)[nH]c(=O)n2-c2ccccc2F)C(C(F)(F)F)(C(F)(F)F)N1 | 7.4% | 6.9% | 0.9% | -0.1% | -8.5% | -1.2% | u | 0.5%
CC(C)(C)c1cc(NS(=O)(=O)c2ccc(Br)s2)no1 | 4.8% | -6.1% | -50.2% | x | x | -1.5% | x | x
Cn1c(N)c(C(=O)COC(=O)COc2ccc(Cl)cc2Cl)c(=O)n(C)c1=O | -6.9% | -17.0% | x | 3.4% | x | 8.9% | u | x
Cc1cccc(C(=O)OCC(=O)NCC2COc3ccccc3O2)c1 (configuration not stated) | -13.2% | -12.2% | x | u | x | 9.4% | -0.6% | x
COc1ccc(N2C(=O)CC(NNC(=O)c3ccc(Br)s3)C2=O)cc1 (configuration not stated) | -2.5% | 13.2% | 6.9% | -7.2%[46.1 µM] | x | 0.6% | 14.4% | x
O=S(=O)(c1ccc(F)cc1)N(Cc1nc(-c2ccccc2)no1)C1CCCCC1 | -3.4% | x | x | -0.8%[46.1 µM] | -16.0% | x | 1.9%[46.1 µM] | -5.9%
CCOC(=O)/C(C(N)=NC(C)C)=C(\O)c1ccccc1 | -3.5% | -4.6% | -51.2% | -27.1% | -10.2% | 5.9% | -2.1% | -4.5%
Cc1ccc(C2CCN(C(=O)Nc3ccc(Cl)cc3)C2)cc1 (configuration not stated) | 20.4% | x | x | x | -13.4% | x | u | -4.1%
Cc1ccc(-c2ccc([C@H]3[C@H]4C=CC[C@@H](C)[C@@H]4C(=O)N3Cc3ccccc3)c(F)c2)cc1 | 0.0% | 11.2% | 27.9% | x | x | -6.4% | x | x
CC1CCCCN1CCCNc1c(C=O)c(=O)[nH]c2ccccc12 (configuration not stated) | -11.2% | -1.7% | 15.5% | -3.1% | x | -4.2% | u | x
Cc1ccc(C(=O)NCC(=O)OC(C)C(=O)Nc2ccc(N(C)C)cc2)cc1C (configuration not stated) | 47.3%[activator] | -5.9% | x | 7.2%[46.1 µM] | x | -3.7% | 28.7% | x
Cc1ccccc1-c1nc(CN2CCC(C(=O)NCCN3CCOCC3)CC2)c(C)o1 | -9.7% | -2.6% | -1.3% | u | x | -4.4% | 2.9%[46.1 µM] | x
COCC(C)n1c(SCc2ccc(C(=O)OC)o2)nc2ccccc2c1=O (configuration not stated) | x | 9.9% | -46.3% | u | 12.5% | -9.8% | 10.3µM* | -3.5%

Copied from the list:
CC1CCCCN1CCCNc1c(C=O)c(=O)[nH]c2ccccc12 (configuration not stated) | StopGo reporter = -11.2%
Cc1ccc(C2CCN(C(=O)Nc3ccc(Cl)cc3)C2)cc1 (configuration not stated) | Cruzain Triton = -4.1%

Next entries:
molecule | StopGo reporter | RE007 growth inh | NS1 inh | Marburg entry inh | Cruzain inh noDet | SARS PLP yeast | Lassa entry inh | Cruzain Triton
CCOC(=O)C1(Cc2ccc(OC)cc2)CCN(C(=O)Cn2cnnn2)CC1 | 38.7%[activator] | 11.1% | -4.7% | 12.8%[46.1 µM] | x | 1.6% | 13.3% | x
Nc1nc(Cl)cc(N2CCOCC2)n1 | -17.8% | -7.5% | 11.5% | -3.1% | 4.9% | 10.0% | 9.7% | -1.0%
CON(c1nc(Cl)nc(N(C)C)n1)S(=O)(=O)c1ccc(C)cc1 | -13.0% | 15.4% | -5.2% | -15.4%[46.1 µM] | x | -4.9% | -17.5%[46.1 µM] | x
C/C(=N\NC(=S)NCc1ccccc1)c1ccc(C#N)cc1 | 0.1% | -19.0% | -2.4% | x | x | 0.9% | x | x
COc1ccc([N+](=O)[O-])cc1NC(=O)Cc1ccc(C)cc1 | -18.6% | 7.6% | -7.8% | u | -4.0% | -11.4% | 5.2% | -6.2%
Cc1cccc(CC(=O)NC2CCCCCC2)c1 | 56.9%[activator] | 6.7% | -2.6% | x | x | -4.4% | x | x
CCOc1ccc(CC(=O)NNC(=O)NC2CCCCC2)cc1 | -7.7% | -13.3% | 4.5% | u | x | 0.3% | 5.0%[46.1 µM] | x
CCCN(CCC)C1=CC(=[N+]2CCCC2)CC(C)(C)C1 | u | 5.1% | -8.2% | u | -2.4% | -12.4% | 10µM* | -10.1%
CCCCn1cnc2c(Sc3c([N+](=O)[O-])ncn3C)nc(N)nc21 | u | 7.3% | x | u | x | x | 0.0%[46.1 µM] | x
NC(=S)Nc1ncc(C(F)(F)F)cc1Cl | -13.5% | 11.5% | 2.3% | -14.8%[46.1 µM] | x | 7.0% | 15.3% | x
CCC(=O)c1cc(F)c(N2CCN(S(=O)(=O)c3ccccc3)CC2)cc1C | x | 11.8% | 2.3% | -25.8% | 0.6% | -3.0% | -0.9% | -0.5%
CCOC(=O)C1CCCN(C(=O)CSc2ccc(NC(C)=O)cc2)C1 (configuration not stated) | 5.7% | 14.6% | x | 12.3%[46.1 µM] | x | -1.5% | u | x
CSCCC(NC(N)=O)C(=O)NCC1CCCCC1 (configuration not stated) | -17.0% | 1.4% | -4.8% | 21.1% | -1.9% | 0.0% | -0.7% | 3.7%
CCCc1nc(SCc2cc(=O)c3ccc(C)c(C)c3[nH]2)n[nH]1 | -27.2% | x | x | x | -11.2% | x | 7.5%[46.1 µM] | -0.1%
CCCn1c(C)cc(C=O)c1C | -10.7% | 6.1% | x | u | x | 3.1% | 11.1% | x
C#CC(CO)N(CCN(Cc1ccccc1)C(C#C)CO)Cc1ccccc1 (configuration not stated) | -1.7% | -7.3% | -48.7% | u | 0.9% | 2.6% | -27.8% | -0.8%
N#Cc1ccc(OCc2noc(-c3ccsc3)n2)cc1 | 12.6% | 9.4% | -1.4% | 5.2%[46.1 µM] | x | 0.7% | -3.0% | x
O=C(NNC1CC(=O)N(c2cccc(Cl)c2)C1=O)c1cccs1 (configuration not stated) | 14.1% | 5.8% | 30.0% | -3.1% | 9.9% | 7.7% | u | 0.0%
N#CCCS(=O)(=O)c1nnnn1-c1ccccc1 | x | x | -241.5% | -3.7% | -2.8% | -32.1% | x | 1.0%
CCc1cc(=O)oc2cc(O[C@@H]3O[C@H](CO)[C@@H](O)[C@H](O)[C@H]3O)c(Cl)cc12 | -21.5% | -3.4% | 4.1% | x | x | -0.1% | x | x
C#CC[N+](C)(C)CCCCCCCCC | -9.8% | -4.7% | 17.9% | u | 8.2% | -11.1% | -9.7% | 10.0%
CCOc1ccc(NC(=O)C2CC(=O)N(CC)C(=Nc3ccc4c(c3)OCO4)S2)cc1 (configuration not stated) | x | 0.5% | -5.5% | -3.4% | -9.7% | 4.1% | -4.0% | -3.1%
Cc1ccc(Nc2nc(N)nc(CSc3nccn3C)n2)c(C)c1 | 25.1% | -2.2% | -2.0% | u | -1.8% | 6.5% | u | 5.4%
CCOC(=O)c1ccccc1NC(=O)COC | -4.8% | -1.4% | 0.4% | u | -1.4% | 0.1% | 20.2% | 0.9%
CCOc1ccc(OCC)c(NC(=O)C(NS(=O)(=O)c2cccs2)c2ccccc2)c1 (configuration not stated) | -10.4% | x | x | 30.4%[46.1 µM] | -23.1% | x | -24.3%[46.1 µM] | -3.1%
O=C1/C(=C/c2cccs2)COc2ccccc21 | -42.7% | u | -8.8% | u | 7.4% | -23.7% | 15.4% | -10.9%
Cn1c(C(=O)N2CCC(C(=O)N3CCN(c4ccccc4)CC3)CC2)cc2sccc21 | u | x | x | 10.2%[46.1 µM] | u | x | x | -3.3%
CCOC(=O)c1c(S(=O)(=O)NCC(=O)Nc2cccc(C)c2C)c(C)n(C)c1C | 2.9% | -17.1% | 1.5% | x | x | -1.0% | x | x
C=CCN1C(=O)C(CC(=O)NCC)SC1=Nc1ccccc1CC (configuration not stated) | -16.6% | 5.3% | 4.1% | -8.7% | x | 2.5% | -4.3% | x
C=CCN=c1sc(C(=O)OC)cc(=O)n1CC=C | u | -1.2% | -5.9% | -14.5% | 2.5% | -11.1% | 21.0% | 6.2%
CC(=O)n1nc(-c2ccccc2)cc1-c1ccccc1 | 64.4%[activator] | -18.5% | x | -13.3% | x | x | -27.1% | x
Cc1[nH]c(=O)[nH]c(=O)c1S(=O)(=O)N1CCC(C(=O)N2CCN(Cc3ccccc3)CC2)CC1 | -3.2% | -4.3% | -6.9% | 5.7% | -1.3% | 1.5% | 14.3% | -0.9%
CC1CCCN(C(=O)c2cc3c(Cl)nc4ccccc4c3s2)C1 (configuration not stated) | 24.4% | x | x | 23.1%[46.1 µM] | -3.9% | x | -1.2%[46.1 µM] | -2.3%
c1ccc(COc2ccc(OCCN3CCCCC3)cc2)cc1 | 33.7%[activator] | 2.5% | 13.0% | u | 1.1% | -22.7% | 10.0% | 0.2%
COc1ccc(-c2nc3cc(NC(=O)CSc4ccc(C)cc4)ccc3o2)cc1 | 19.4% | x | x | u | 6.1% | x | u | -3.8%
O=C(COc1ccccc1F)Nc1ccc(C(=O)OCc2cc(=O)n3nc(C4CC4)sc3n2)cc1 | 7.6% | x | x | x | -1.1% | x | 5.8%[46.1 µM] | 6.5%
